# Source: PubChem BioAssay
# D2 ag: agonists of human D2 dopamine receptor (beta-arrestin). activation, % (no concentration beside the values). 360,000 tested, 0.084% active. AID 624465. DiscoveRx PathHunter D2 beta-arrestin, luminescence, 90 min; 100% = 57 uM dopamine signal. P14416; in the data active = activation above about 40%; inconclusive = about 15% to 40%; inactive = below about 15%; also: compound concentration not given in the record; the text of the record calls up to 30% inactive
# Target sequence (P14416 whole entry, looked up): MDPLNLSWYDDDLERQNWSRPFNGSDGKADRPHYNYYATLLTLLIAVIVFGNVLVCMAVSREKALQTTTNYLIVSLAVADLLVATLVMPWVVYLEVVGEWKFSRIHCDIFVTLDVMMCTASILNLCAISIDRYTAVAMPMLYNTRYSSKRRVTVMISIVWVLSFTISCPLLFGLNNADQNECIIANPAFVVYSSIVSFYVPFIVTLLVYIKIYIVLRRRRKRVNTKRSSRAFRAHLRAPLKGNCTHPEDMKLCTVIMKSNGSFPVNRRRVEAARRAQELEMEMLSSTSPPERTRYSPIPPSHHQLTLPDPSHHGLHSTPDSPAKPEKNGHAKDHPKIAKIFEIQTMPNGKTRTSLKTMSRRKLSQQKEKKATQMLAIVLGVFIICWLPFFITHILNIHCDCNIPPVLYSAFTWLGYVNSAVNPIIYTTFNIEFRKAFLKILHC
#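 DiscoveRx PathHunter D2 beta-arrestin cells (2,100/well) attached overnight, then compound-stimulated 90 min at 37 C in HBSS/10 mM HEPES/0.1% Tween-20 buffer; beta-galactosidase complementation read by luminescence after 1 h at ambient temperature. Dopamine 57 uM final (EC100) as control.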
# gsp antagonist: antagonists of gsp mutant (McCune-Albright syndrome) | gsp-mutant cells, cAMP HTRF, 30 min; control for the full effect not named in the record | Potency, µM (highest dose often 76.9 µM), inactives show top-dose activity change, negative = inhibition, hits mostly inhibitors | 340,000 tested, 0.4% active; active = falling curve of any shape with a large fitted effect; inconclusive = falling curve, mostly with a smaller effect; inactive = flat or rising curve; cell line not stated here;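 also: intracellular cAMP measured with PDE inhibitor Ro 20-1724 present during compound exposure; potency is read from the fitted curve at half-maximal effect; % is scaled to controls: 0 for no effect and ±100 for the full control effect; nearly all actives have a fitted effect of over 65% in size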
#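 G418-selected cells were plated in DMEM/10% FBS for 16-24 h at 37C, then treated with compounds plus the PDE inhibitor […] (300 uM solution added) for 30 min at 37C. Intracellular cAMP was measured by HTRF after 30 min lysis at room temperature.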
# ClpP mod: qHTS Assay for Activators of ClpP | ATP-dependent Clp protease proteolytic subunit (Bacillus subtilis (strain 168)), P80244 | purified B. subtilis ClpP, FRET peptide cleavage, 20 min | Potency, µM (titrated, usually from 57.5 µM), inactives show at the highest dose activity change, negative = active | 340,000 tested, 1.9% active | AID 651965, 2013; active = well fitted falling curve with a large enough effect; inconclusive = small, poorly fitted or top-dose-only effect; inactive = no such curve, though single readings can be large or run the other way; also: potency is read from the fitted curve at half-maximal effect; the source files actives as falling curves though it sought activators and does not explain the sign; nearly all actives have a fitted effect of over 65% in size; many hits overshoot -100%
# Target sequence (P80244 whole entry, looked up): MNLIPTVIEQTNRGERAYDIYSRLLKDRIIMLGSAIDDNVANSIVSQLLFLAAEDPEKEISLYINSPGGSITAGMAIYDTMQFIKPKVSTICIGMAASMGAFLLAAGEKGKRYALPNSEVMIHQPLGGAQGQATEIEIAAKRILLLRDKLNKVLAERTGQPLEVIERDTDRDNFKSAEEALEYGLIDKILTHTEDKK
#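 Buffer: 100 mM Tris/HCl pH8, 100 mM KCl, 0.05% low protease BSA, 2.5% glycerol, 0.01% Tween-20. ClpP 10 microg/mL final; 20 min RT; delta FRET normalized to ADEP and DMSO controls.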
# PINK1 expr mod: modulators of PINK1 expression; PINK1 immunofluorescence, high-content cytometry, 24 h; Potency, µM (series often up to 76.6 µM), inactives show at the top dose activation (PINK1 increase), most hits filed as activators; 410,000 tested, 0.2% active; active = well fitted activation curve with a large enough effect; inconclusive = small, poorly fitted or top-dose-only effect; inactive = flat fitted curve, though single readings scatter; cell line not stated here;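 also: potency is read from the fitted curve at half-maximal effect; % of control where 0% means no effect; nearly all actives have a fitted effect of over 65% in size; a mitochondrial uncoupler was the plate control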
#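 Compound titrations (5 concentrations, 24 h) on a stable cell line; DMSO and CCCP controls. Endpoint: fixed-cell PINK1 immunofluorescence with mitochondrial, cell and nuclear markers, scanned by microplate cytometer.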
# Sfp PPTase inh: Sfp phosphopantetheinyl transferase inhibition; Potency, µM, for the others: max response, negative = inhibition, most hits filed as inhibitors; Biochemical Sfp PPTase activity, qHTS; AID 1490; Q9F4F7; 310,000 tested, 3.5% active; active = well fitted inhibition curve with a large enough effect; inconclusive = small, poorly fitted or top-dose-only effect, or another doubt; inactive = no such curve, though single readings can be large or run the other way;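 also: the enzyme is Sfp with the accession as filed and its product quenches rhodamine fluorescence; potency is read from the fitted curve at half-maximal effect; 0% = enzyme reaction without inhibitor and -100% = no enzyme wells; top concentration of the series not given in the record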
#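 Buffer: 50 mM Hepes-Na pH 7.6, 10 mM MgCl2, 0.01% Nonidet P-40, 0.01% BSA. Enzyme 15 nM, pre-exposed to compound 15 min; substrates then added and fluorescence change tracked over 30 min.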
# gsp agonist: gsp mutant agonism | gsp mutant cells, cAMP HTRF, 30 min; control for the full effect not named in the record | Potency, µM (doses to about 76.9 µM), inactives show top-dose activation (cAMP increase), usual class: activators | 340,000 tested, 0.13% active; active = well fitted activation curve with a large enough effect; inconclusive = small, poorly fitted or top-dose-only effect, or another doubt; inactive = no such curve, though single readings can be large or run the other way; cell line not stated here;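 also: phosphodiesterase inhibitor Ro 20-1724 added with compounds to block cAMP breakdown; potency is read from the fitted curve at half-maximal effect; nearly all actives have a fitted effect of over 60% in size; about a fifth of the inactives were tested at one dose only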
#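 Cells stably selected in G418 were plated at 2000/well, grown 16-24 hr, then given compounds in DMSO with the PDE inhibitor […] (300 uM solution added) for 30 min at 37C; cAMP was read by HTRF.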
# Menin-MLL FL inh: inhibitors of human menin-MLL interaction, wild-type MLL peptide; Fluorescence polarization, fluorescein-MLL peptide displacement from menin; FP activity change, % at 61.4 µM; 290,000 tested, under 10 active; AID 1766; inconclusive = falling polarisation curve, or a change in total fluorescence; inactive = total fluorescence flat and polarisation flat or rising; no compound was filed as active; the % refers to the polarisation; negative = inhibition;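 also: % of control where 0% means no effect; inhibitors lower the polarisation; unlabelled MLL peptide was the positive control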
# * hit, by the source's call; ? = inconclusive; · = no result given; & = joins results of further samples; [ ] = another dose, or the depositor's remark.
SMILES,D2 ag,gsp antagonist,ClpP mod,PINK1 expr mod,Sfp PPTase inh,gsp agonist,Menin-MLL FL inh
O=C1NCCN/C1=C\C(=O)c1ccc(F)cc1,-3.5,1%,-1.1%,0.4%,-6%,15%,-1.1
N#C/C(=C\c1c(N(Cc2ccccc2)Cc2ccccc2)nc2ccccn2c1=O)C(N)=O,-0.4,-20%,-2.9%,-0.4%,-10%,26%[15.4 µM],5.8
Cc1cc(C)nc(/N=C(\N)Nc2ccc(OCc3ccccc3)cc2)n1,-2.4,-8%,·,?,8%,-1%,-0.4
CC(=O)C1=C(C)NC(SCC(N)=O)=C(C#N)C1c1ccco1 (configuration not stated),0.9,-6%,·,1.3%,89µM*,16%,-2.1
Cc1ccc(S(=O)(=O)c2nc(-c3cccs3)oc2SCC(N)=O)cc1,0.2,-6%,-17%,-3.2%,-4%,29%,3.4
O=S1(=O)c2ccccc2OC(COCc2ccccc2)CN1C1CC1 (configuration not stated),-0.9,0%,1.2%,2.3%,·,·,·
OCCCc1nc2ccccc2n1CCCCOc1ccccc1,-1.1,1%,-0.2%&-2.5%,0.2%&-1.0%,5%,-2%,-0.7
COc1cccc(C(C)(O)c2nc(-c3ccc(F)cc3OC)cs2)c1 (configuration not stated),4.5,·,-2.4%,9.6%,·,·,·
Cc1cccc(Nc2nc(N)nc(CN3CCN(c4ccccc4F)CC3)n2)c1,5.0,-6%,2.6%,7.3%,·,-8%,·
CCc1c(O)nc(SCC(=O)Nc2ccccc2)n(-c2ccccc2C)c1=O,1.0,·,-2.0%,1.0%,·,-65%[inhibitor],·
Cn1c(CCN2CCCCC2)nc2cc([N+](=O)[O-])ccc21,0.7,5%,-5.7%,·,-1%,-10%,5.1
FC(F)(F)c1cnc(-c2cnc3c(-c4ccc(Cl)cc4)cnn3c2)c(Cl)c1,-2.4,15%,-1.6%,18%,-6%,-11%,4.6
O=C(CCCC(=O)c1ccc(O)cc1)c1ccc(O)cc1,4.3,-17%,0.5%,-1.5%,·,-22%,·
CCC1CCCCN1C(=O)CSc1nc(N)cc(=O)[nH]1 (configuration not stated),-4.6,5%,·,0.0%,17%,8%[15.4 µM],-1.2
CCN(CC)S(=O)(=O)c1ccc(C2=NOC3(C2)N(C)c2ccccc2C3(C)C)cc1 (configuration not stated),-0.4,6%,·,0.1%,8%,-2%[15.4 µM],0.7
CCCCNCC(O)(c1ccc(Cl)cc1)c1ccc(Cl)cc1,-4.7,5%,·,-1.7%,17%,-15%[15.4 µM],2.8
CCn1cc(CN2CCC(n3nccc3NC(=O)CCCc3ccccc3)CC2)cn1,-2.9,-4%,-1.1%,-1.2%,7%,46%,·
CCCOc1ccc(OCC(=O)c2[nH]c(C)c(C(C)=O)c2C)cc1,1.9,-22%,-0.8%,-1.7%[38.3 µM],-3%,0%,5.0
O=C(N/N=C/c1ccccc1)c1cc[n+]([O-])cc1,0.6,3%,·,-2.2%,19%,12%,-5.5
O=C(CCc1ccccc1)NN1C(=O)C2C3C=CC(C3)C2C1=O (configuration not stated),-0.8,9%,·,1.3%,-1%,4%,-2.6
COC(=O)C1=C(C)N(Cc2ccco2)C(=O)/C1=C\c1ccc([N+](=O)[O-])cc1,-2.6,-7%,1.2%,2.1%,20µM*,10%,1.2
CCN(C(=O)C(C)N1C(=O)/C(=C/c2cccs2)SC1=S)C1CCS(=O)(=O)C1 (configuration not stated),-1.3,8%,3.3%,0.0%,-3%,7%,·
CCCCN(C)C(=O)c1nc2ccccn2c1CNCCCn1nnc2ccccc21,-3.5,1%,1.2%,0.8%,-2%,-15%,-1.3
O=C(O)/C(=C\c1cccs1)c1ccccc1,1.6,-3%,·,-2.5%,18%,22%,-1.2
Cc1c(C=C(C#N)c2ccc([N+](=O)[O-])cc2)c(=O)n(-c2ccccc2)n1C,-3.3,-14%,1.4%,2.2%,·,6%[15.4 µM],·
# Additional entries:
SMILES,D2 ag,gsp antagonist,ClpP mod,PINK1 expr mod,Sfp PPTase inh,gsp agonist,Menin-MLL FL inh
Cc1ccc(C(=O)Nc2ccc(NC(=O)c3ccco3)c(C)c2)cc1,-2.5,0%,·,-0.8%,5%,-1%[15.4 µM],-2.2
CS(=O)(=O)N1CCC(C(=O)NNC(=O)Nc2ccc(F)c(Cl)c2)CC1,-3.2,5%,-1.6%,-4.0%,13%,-43%[inhibitor],-0.4
O=C(CCC1CCCC1)Nc1ccon1,-0.2,20%,1.4%,0.4%,-6%,?,0.6
COc1ccc(-c2nn(CCC(=O)O)cc2/C=C2\SC(N)=NC2=O)cc1,-0.3,6%,-3.2%,-1.7%,-13%,-27%,?
O=C(Nc1ccc(C(=O)O)cc1)/C(=C\C=C\c1ccccc1)NC(=O)c1ccc(Br)cc1,-2.4,-11%,·,3.3%,1%,1%,1.0
NC(=O)CSc1nnc2n(-c3ccccc3)c(=O)c3c4c(sc3n12)CCCCC4,-3.1,-19%,-1.2%,-2.1%,0%,-9%,-1.4
O=C1CC(N2CCN(Cc3ccc4c(c3)OCO4)CC2)C(=O)N1CCc1ccccc1 (configuration not stated),1.0,-13%,-0.2%,-0.3%[38.3 µM],10%,?,2.9
COc1ccc(C2C(C(=O)Nc3cccc(OC)c3)c3ccccc3C(=O)N2C)cc1 (configuration not stated),-1.9,-27%,-0.9%,8.8%,17%,22%[15.4 µM],-0.9
COc1ccc(CCNC(=O)c2cc3c(=O)n4cccc(C)c4nc3s2)cc1OC,8.3,-4%,·,0.8%,24%,23%,5.4
NC(=O)CSc1nnc(Cc2cccs2)n1C1CCCCC1,-3.0,-6%,-0.4%,19%[38.3 µM],3%,-29%,0.3
Cc1nn(C(=O)CCC(=O)NCc2cccc(F)c2)c2ccccc12,-4.2,13%,1.8%,0.0%,4%,14%,1.2
O=C1c2ccccc2C2NC(=O)C3(CCCCC3)N12 (configuration not stated),-2.3,28%,1.4%,-1.5%,20%,-10%,1.1
CSc1ccc(/C=N/N2CCN(Cc3ccccc3Cl)CC2)cc1,-11,8%,·,6.8%,14%,-3%[15.4 µM],3.0
Cc1ccsc1C(=O)OCC(=O)NCC1CCCO1 (configuration not stated),-4.8,9%,-0.9%,1.9%,-4%,-47%[inhibitor],2.6
O=C(Nc1cccc(C(=O)Nc2ccc(Cl)cn2)c1)c1ccccc1,-3.7,-17%,-5.0%,0.5%,-1%,16%,3.1
CC(=O)O[C@H]1C2OC(=O)C(C)=C2[C@@H]2OC(=O)[C@]3(CCC4OC41C)OC23 (some centres not stated),0.3,-5%,1.4%,7.3%,17%,·,-1.6
CCOc1cc(CNCCCN2CCOCC2)ccc1OCC(=O)Nc1cccc2ccccc12,-4.3,18%,-4.7%,20%[38.3 µM],7%,-2%,2.2
COc1ccc(S(=O)(=O)N2CCOCC2)cc1NC(=O)COc1ccc(C(C)=O)cc1OC,-0.7,-3%,-19%,11%,·,-11%,·
Cc1ccc([C@@H]2[C@@H]3C(=O)N(c4ccccc4)C(=O)[C@@H]3[C@]3(Cc4ccccc4)C(=O)N(CC4CC4)CC(=O)N23)o1,-3.3,6%,-0.3%,0.6%,-12%,5%,3.0
CSC1=NC(C)(C)C=C(/C=C/c2ccc(Cl)cc2Cl)N1,-6.0,·,·,-2.1%,-18%,-16%[15.4 µM],3.1
Clc1cccc(Cl)c1Cn1cnc2c(N3CCCCCC3)ncnc21,-0.3,4%,-0.8%,·,-12%,-37%[inhibitor],3.0
CCN(CC)S(=O)(=O)c1ccc2c(c1)nc(-c1ccccn1)n2C,-2.7,-4%,·,1.7%,-3%,-3%[15.4 µM],-4.8
CC(C)NC(=O)C1COc2ccccc2O1 (configuration not stated),-6.4,9%,0.7%,2.1%,3%,-108%[inhibitor],-4.8
O=C(NCc1ccco1)c1ccccc1NS(=O)(=O)c1cccs1,-2.1,?,-6.3%,7.7%[38.3 µM],4%,-38%[inhibitor],4.0
CCCCC(=O)NC(c1ccc(OC)c(OC)c1)c1c(O)ccc2ccccc12 (configuration not stated),-6.9,2%,-21%,2.9%,10%,-31%,-5.7
# Going on with the list:
SMILES,D2 ag,gsp antagonist,ClpP mod,PINK1 expr mod,Sfp PPTase inh,gsp agonist,Menin-MLL FL inh
CCc1ccc(-c2cc(C)no2)cc1S(=O)(=O)N1CCN(c2ccccc2F)CC1,-0.1,-2%,2.0%,3.3%,10%,13%,1.2
COc1ccccc1NC(=O)c1sc(Cl)nc1C,6.5,-7%,2.2%,0.2%,6%,-17%,-1.4
O=C1C2C3C=CC(C4CC34)C2C(=O)N1c1ccc2c(c1)OCO2 (configuration not stated),-1.6,9%,·,-2.1%,-1%,13%[15.4 µM],-3.2
Cc1nc2ccc(C(=O)N3CCN(c4ccccc4)CC3)cc2s1,-2.4,5%,-1.2%,0.0%,8%,?,3.4
CCn1c(SCc2ccc(C(=O)Nc3nccs3)cc2)nnc1-c1ccc(NC(C)=O)cc1,-0.8,-5%,-11%,1.6%,7%,4%,7.5
CC1C(=O)N2CCCc3cc(NC(=O)CC(C)(C)C)cc1c32 (configuration not stated),0.1,-2%,-0.1%,-0.7%,6%,1%,-4.7
O=C(C1Cc2ccccc2CN1C(=O)c1ccccc1)N1CCN(c2ccccc2)CC1 (configuration not stated),-0.5,0%,·,1.0%,5%,-31%[15.4 µM],2.2
COc1ccc(CCN=C(N)Nc2nc(C)cc(C)n2)cc1,-1.3,14%,·,4.8%,9%,-13%,0.6
CC1CCCC(NC(=O)C2CCN(S(=O)(=O)N3CCCCCC3)CC2)C1C (configuration not stated),-2.3,11%,1.6%,?,9%,-7%[15.4 µM],2.4
Cc1ccc(O)c(-c2cc(C(=O)Nc3ccc(S(=O)(=O)Nc4nccc(C)n4)cc3)[nH]n2)c1,6.1,-22%,·,2.6%,20%,-10%[15.4 µM],3.5
CCCn1nnnc1-c1cccc(Cl)c1,0.6,-16%,1.0%,0.7%[38.3 µM],10%,5%,0.5
